MT1-MMP act inh – inhibitors of human MT1-MMP activation | P50281 | HT1080 RFP-PRO-GFP cells, GFP/RFP ratio fluorescence, overnight; percent of plate control window, DMSO zero | GFP/RFP ratio change, % at 20 µM | 360,000 compounds, 0.061% hits | AID 651647;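 active = GFP/RFP ratio change of at least 30% with cell ATP level not reduced by more than half and red fluorescence within 50% of control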; also: strong numbers were not always called active
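Assay system – RFP-PRO-GFP reporter HT1080 cells · Compound dosing – single dose of 20 µM compound, 1% DMSO final · Incubation – overnight compound exposure at 37 °C · Measure – GFP/RFP fluorescence ratio · Benchmarks – DMSO wells and RFP-L50D-GFP cells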
CSC inhib – blocks cancer stem cells. inhibition, % at 7.5 µM. cancer stem cell-like cells viability, luminescence. 300,000 compounds, 1.1% hits. AID 2717;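 active = mean at 75% or more and at least half the replicates too; inconclusive = mean and replicates disagree; tested in HMLE shEcad cells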;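 also: 0% = median of negative and 100% = median of positive control wells; the first replicate is given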
PABP polyA inh – blocks human PABP binding to poly(A) RNA. 290,000 compounds, 1% hits. inhibition, % at 35 µM. fluorescence polarization. P11940;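 active = 50% or more with normal probe brightness, or confirmed in later tests; inconclusive = above 50% with abnormal brightness, or retests that disagree; inactive = below 50% or failed in later tests; about a fifth of its hits are not listed in these tables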;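 also: calls also rest on retests at 20 µM and on dose response follow-up; controls were probe without protein and protein plus probe with vehicle; some compounds called inactive have numbers as strong as hits; many hits fall short of the cut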
Target sequence (P11940 whole entry, looked up): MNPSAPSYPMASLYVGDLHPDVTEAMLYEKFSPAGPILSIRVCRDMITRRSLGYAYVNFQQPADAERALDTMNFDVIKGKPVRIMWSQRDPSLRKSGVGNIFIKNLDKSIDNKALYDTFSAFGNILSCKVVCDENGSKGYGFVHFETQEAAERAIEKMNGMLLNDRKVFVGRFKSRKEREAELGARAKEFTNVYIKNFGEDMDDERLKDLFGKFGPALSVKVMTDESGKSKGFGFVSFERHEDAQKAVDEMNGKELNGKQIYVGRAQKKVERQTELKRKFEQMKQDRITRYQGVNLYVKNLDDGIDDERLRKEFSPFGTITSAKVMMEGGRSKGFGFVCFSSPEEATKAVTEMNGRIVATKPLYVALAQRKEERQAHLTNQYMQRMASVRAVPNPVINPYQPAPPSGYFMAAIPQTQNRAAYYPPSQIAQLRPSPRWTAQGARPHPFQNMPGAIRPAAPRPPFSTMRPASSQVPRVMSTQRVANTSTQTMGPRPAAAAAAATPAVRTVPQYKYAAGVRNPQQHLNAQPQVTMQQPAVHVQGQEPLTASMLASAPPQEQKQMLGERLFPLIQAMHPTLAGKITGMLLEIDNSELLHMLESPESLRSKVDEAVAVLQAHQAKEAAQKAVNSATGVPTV
eIF4H inh – inhibitors of RNA binding by human eIF4H; Q15056; inhibition, % at 35 µM; eIF4H fluorescence polarization binding assay; 290,000 compounds, 0.94% hits;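 active = 50% or more with normal probe brightness, or confirmed in later tests; inconclusive = above 50% with abnormal brightness, or retests that disagree; inactive = below 50% or failed in later tests; about a fifth of its hits are not listed in these tables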;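 also: calls also rest on retests at 20 µM and on dose response follow-up; 0% = protein and probe with vehicle and 100% = probe without protein; strong numbers were not always called active; many hits fall short of the cut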
Yeast UUG start – alters start codon recognition fidelity in yeast; S. cerevisiae UUG-firefly luciferase reporter, luminescence/redox ratio; activity score, % at 18.7 µM; 350,000 compounds, 0.13% hits; AID 602363;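 active = replicate mean at a twofold rise or more, about +100% in these data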;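 also: firefly luciferase made from a UUG start codon reports start codon fidelity; reporter light over untreated wells divided by growth signal over untreated wells; some hits fall short of that in this replicate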
Rce1 inhib – blocks yeast Ras-converting enzyme; 290,000 compounds, 0.27% hits; yeast membranes, quenched prenylated peptide cleavage fluorescence; Q03530; calls only; AID 2563;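 active = fall in fluorescence gain of 50% or more versus controls, with final raw signal at or below 3038400; inconclusive = same 50% fall but final raw signal above 3038400; inactive = fall in fluorescence gain under 50%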;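 also: plate controls were neutral control wells for no effect and wells lacking membranes for full effect; tested at 10 µM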
Target sequence (Q03530 whole entry, looked up): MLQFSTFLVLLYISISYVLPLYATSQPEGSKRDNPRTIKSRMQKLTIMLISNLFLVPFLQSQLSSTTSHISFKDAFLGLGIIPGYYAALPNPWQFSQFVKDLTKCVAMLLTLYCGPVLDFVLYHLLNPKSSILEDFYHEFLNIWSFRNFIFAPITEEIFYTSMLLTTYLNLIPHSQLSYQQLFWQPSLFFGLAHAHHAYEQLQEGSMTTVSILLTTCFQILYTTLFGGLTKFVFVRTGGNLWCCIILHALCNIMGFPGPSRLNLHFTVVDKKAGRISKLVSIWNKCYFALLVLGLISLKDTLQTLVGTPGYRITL
Env fusion inh – HIV envelope-mediated fusion inhibition; AID 651610; HeLa-JRFL Env/CEM21 cell fusion, luciferase; inhibition, % at 12.3 µM; 360,000 compounds, 1.1% hits;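 active = mean replicate inhibition score of at least 50 and every replicate individually at or above 50; inconclusive = only one of the two criteria met; inactive = mean below 50 and not all replicates reaching 50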;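 also: 0% = plate neutral controls and 100% = maraviroc near 300 nM; one replicate is shown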
eIF4H inh retest – recorded beside eIF4H inh, whose call it bears; inhibition, %; compound at 20 µM; confirmation average;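 mean of two retest wells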
PABP polyA inh retest – second read-out of PABP polyA inh, no call of its own (marks repeat the call); inhibition, %; compound at 20 µM; confirmation repeats;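 mean of two retest wells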
MT1-MMP act inh RFP – also measured in MT1-MMP act inh; calls as there; RFP signal change, %; measured here: RFP expression control read;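 0 = vehicle wells; hits needed this value within 50% of zero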
* = called active by the depositor; i = inactive; ? = inconclusive; . = no result given.

SMILES	MT1-MMP act inh	MT1-MMP act inh RFP	CSC inhib	PABP polyA inh	eIF4H inh	Yeast UUG start	Rce1 inhib	Env fusion inh	others
CC(=O)c1ccc(OCCCC(=O)NC2CCCCC2C)cc1 (stereo not given)	3	4	-13	-2	-6	-6	.	13
Cc1nc2ccc(C(C(F)(F)F)(C(F)(F)F)C(F)(F)F)cc2[nH]1	-1	-1	-6	-6	13	-7	i	3
Cc1ccccc1C(=O)NCCNC(=O)c1ccccn1	1	3	.	-1	0	-13	i	-14
C(=N\Nc1nc(N2CCCCC2)nc(N2CCCCC2)n1)/c1c[nH]c2ccccc12	-6	4	-10	-6	8	.	i	10
CCN(CC)CC(=O)NCC1(c2ccccc2)CCOCC1	-4	0	-19	-1	3	-17	i	-147
COC(=O)C1C(O)=C(C(C)=Nc2cccc3ccccc23)C(=O)CC1(C)C (stereo not given)	3	1	-8	30*	?	.	i	6	PABP polyA inh retest=89*
Cc1cc(NC(=O)CCC(=O)N(CCC(C)C)C(C(=O)NC2CCCC2)c2ccccc2C)no1 (stereo not given)	-8	-3	6	-3	-10	-4	i	30
O=C(O)c1ccc(COc2ccc3ccccc3c2/C=C2/NC(=O)N(Cc3ccc(F)cc3)C2=O)cc1	-1	-3	.	14	18	.	.	7
COc1ccc(C2CC(c3ccccc3)=NN2C(=O)c2ccc(F)cc2)cc1 (stereo not given)	1	-1	3	-2	3	-13	i	-23
CC[n+]1c(/C=C/Nc2ccccc2)oc2ccccc21	-50	3	-2	41	59	-6	i	2	eIF4H inh retest=42;PABP polyA inh retest=41
O=C(CN1CCCc2ccccc21)N/N=C/c1ccccc1O	2	1	38	-1	2	67*	i	.
Cc1cccc(NC2=NC3(CCCCC3)N=C(N)N2)c1C	-6	-2	.	6	-9	-9	i	.
CC(C)C(=O)N1CCCCCCN1C(=O)C(C)C	-1	4	.	.	.	-22	.	-7
N#Cc1c(Cn2cncn2)nc(=O)n(-c2ccc(Cl)cc2)c1N	0	0	13	4	5	-16	i	16
O=C(CCc1c[nH]c2ccccc12)NCc1ccco1	2	2	-7	-4	12	1	i	9

An excerpt from above in order of length of the SMILES, rising.
SMILES	MT1-MMP act inh	MT1-MMP act inh RFP	CSC inhib	PABP polyA inh	eIF4H inh	Yeast UUG start	Rce1 inhib	Env fusion inh	others
Cc1ccccc1C(=O)NCCNC(=O)c1ccccn1	1	3	.	-1	0	-13	i	-14
Cc1nc2ccc(C(C(F)(F)F)(C(F)(F)F)C(F)(F)F)cc2[nH]1	-1	-1	-6	-6	13	-7	i	3
O=C(O)c1ccc(COc2ccc3ccccc3c2/C=C2/NC(=O)N(Cc3ccc(F)cc3)C2=O)cc1	-1	-3	.	14	18	.	.	7

Next part:
SMILES	MT1-MMP act inh	MT1-MMP act inh RFP	CSC inhib	PABP polyA inh	eIF4H inh	Yeast UUG start	Rce1 inhib	Env fusion inh	others
Cc1cc(S(=O)(=O)N2CCOCC2)ccc1OCC(=O)NCCCn1ccnc1	0	0	-12	2	6	-7	i	7
COc1ccc(C(=O)/C=C/c2ccc(N(C)C)cc2)c(OC)c1	-157	-5	65	?	?	1	i	-19
CC(C)(C)NC(=O)CCC1COc2ccccc2O1 (stereo not given)	3	5	-1	-9	-4	-11	i	-12
COc1cc(/C=N/O)cc(Br)c1OCc1ccc(Cl)cc1	-3	-8	71	-7	0	8	i	-29
C[C@@H]1CN([C@@H](C)CO)C(=O)c2c(c3ccccc3n2C)-c2ccccc2CO[C@H]1CN(C)S(=O)(=O)c1ccc(C#N)cc1	1	-10	.	.	.	-13	.	69*
CCOC(=O)Nc1ccc2c(c1)N(C(=O)CNC)c1ccccc1CC2	0	6	3	-3	11	0	i	-23
CC(=O)c1c(C)[nH]c(C(=O)CSc2nnc(-c3ccccc3)n2Cc2ccc3c(c2)OCO3)c1C	0	-1	2	1	3	.	i	.
COc1ccc(CC(=O)Nc2ccc(C(=O)Nc3nccs3)cc2)cc1OC	-2	-4	.	20	-9	.	i	-1
CC(=O)c1ccc(Nc2cc(C)nc3c(C)cc(C)cc23)cc1	-8	-12	-7	-4	-5	.	i	-20
Nc1cc(C(=O)OCC(=O)NCC2CCCO2)ccc1Cl (stereo not given)	3	2	-2	2	-1	.	i	-14
O=C(NCC1CCCO1)C(c1ccc(F)cc1)N(CC1CCCO1)C(=O)c1ccc(-c2ccccc2)[nH]1 (stereo not given)	0	4	-5	8	-1	.	i	0
Cc1cccc(N(C)C(=O)COc2cc(=O)n(C)c3ccccc23)c1	5	4	8	-2	-8	3	i	-16
Cn1cccc1C(=O)NNC(=O)COc1ccc(Br)cc1	3	1	-2	.	.	.	.	11
CC(OC(=O)C(NC(=O)c1ccco1)C(C)C)C(=O)Nc1ncc(Cl)cc1Cl (stereo not given)	-2	0	.	-1	-13	8	i	.
CN(C)CCCOC(=O)c1ccc(Cl)cc1	-2	3	0	16	0	-13	i	22
C/C(N)=C(/C#N)C(=O)COC(=O)CSc1ccc2ccccc2c1	3	8	-1	11	3	-6	i	-48
CCOc1ccc(C(=O)c2ccc([N+](=O)[O-])cc2Cl)cc1	-2	-3	-5	-4	1	.	i	4
O=C(CN1c2cccc3cccc(c23)S1(=O)=O)N1CCCCC1	4	5	-2	.	.	7	.	-20
FC(F)(F)c1cnc(Oc2ccc(-c3nnco3)cc2)c(Cl)c1	1	-1	-16	4	8	.	i	-61
Clc1ccc2c(N/N=C/c3cccnc3)ccnc2c1	8	-5	0	2	13	-13	i	-69
Cc1ccc(C2=NN(S(C)(=O)=O)C(c3ccc4c(c3)OCO4)C2)cc1 (stereo not given)	5	-2	-2	-1	-2	.	i	.
CC(Oc1ccc([N+](=O)[O-])cc1Cl)C(=O)Nc1ccc(C(N)=O)cc1 (stereo not given)	5	1	3	6	-3	.	i	32
O=C(Nc1cc(Cl)ccc1Cl)N1CCCC1	0	2	23	-4	-8	.	i	-11
CCCCCCn1c(=O)n2n(c1=O)C[C@]1(OC(=O)NCC3CCCCC3)CN(S(=O)(=O)c3ccc(C)cc3)C[C@]1(O)C2	-1	-14	.	.	.	2	.	-24
CCC(c1nnnn1C1CCCC1)N1CCN(C/C=C/c2ccccc2)CC1 (stereo not given)	3	-1	.	.	.	2	.	-125
O=C(NNC(=O)C1CCN(S(=O)(=O)c2ccc(Cl)cc2)CC1)c1ccc(S(=O)(=O)N2CCCCC2)cc1	10	-11	-16	-4	7	.	i	2
COc1ccc(NC(=O)c2ccccc2SC)cc1	5	-7	5	3	8	.	i	2
CCCn1c(N)c(N(CCOC)C(=O)Cc2ccc(S(=O)(=O)N3CCOCC3)s2)c(=O)[nH]c1=O	0	7	-10	.	.	-7	i	-8
COc1cccc(-c2cc(C(=O)NC3CC3)c3ccccc3n2)c1	-4	-1	0	-8	2	1	i	-34
CCCCn1nnnc1SCC(=O)Nc1ccc2c(c1)OCO2	-1	-3	.	-9	1	-18	.	.
Cc1cc(C)cc(N(CC(=O)NCC2CCCO2)C(=O)CCC(=O)Nc2nccs2)c1 (stereo not given)	0	6	.	-1	-6	-10	i	6
CCC(C)[C@H]1CNCCN1CCc1cc(C(F)(F)F)cc(C(F)(F)F)c1 (stereo not given in full)	-1	2	10	.	.	-10	i	-7
CC1=NN(C(=O)Cc2ccc([N+](=O)[O-])cc2)C(O)(C(F)(F)C(F)(F)F)C1 (stereo not given)	0	-2	11	0	15	-12	.	-5
CCN=C(NCC)SC1CC(=O)N(c2ccc(F)cc2)C1=O (stereo not given)	-2	4	-12	4	-8	-20	i	-243
CC(=O)Nc1ccc(C(=O)CCl)cc1	-1	2	43	.	.	-27	.	.
CCC(=O)c1ccc(OCc2ccc(C(=O)OC)cc2)c(OC)c1	7	2	0	-4	-2	-2	i	.
Cc1nc(C(F)(F)F)ccc1C(=O)N1CCC(C)(C(=O)O)C1 (stereo not given)	6	13	.	.	.	-2	.	20
COc1cccc(OC)c1C(=O)Nc1ccccc1C(=O)N1CCOCC1	1	3	-4	4	-9	14	i	13
CC(C)c1ccc(NC(=S)NN(c2ccccc2)c2ccccc2)cc1	-6	-5	18	-2	7	-19	i	4
FC(F)(F)c1ccccc1Cc1c(-c2ccco2)nc2ccc(Cl)cn12	-3	-4	.	.	.	-9	.	3
COC(=O)CC1=NN(c2nc(C)cc(C)n2)C(=O)C1	-1	-6	-7	-5	0	-27	i	22
CC1(C)CC(=O)C(C(N)=NC(=O)c2ccccc2)=C(O)C1	3	-3	16	-6	-6	.	i	-3
CN(Cc1c(C(=O)N/N=C/c2ccccc2)nnn1-c1nonc1N)C1CCCCC1	-1	2	-2	3	4	-12	i	4
N#Cc1ccsc1NC(=O)CN1C(=O)NC2(CCCCC2)C1=O	-5	0	8	44*	68	-23	i	-5	eIF4H inh retest=7;PABP polyA inh retest=66*
CCOc1ccc(Br)cc1S(=O)(=O)NC(=O)c1ccccc1	-3	0	0	6	3	.	i	-3

Compounds above containing an NH in an aromatic ring, in the order listed:
SMILES	MT1-MMP act inh	MT1-MMP act inh RFP	CSC inhib	PABP polyA inh	eIF4H inh	Yeast UUG start	Rce1 inhib	Env fusion inh	others
Cc1nc2ccc(C(C(F)(F)F)(C(F)(F)F)C(F)(F)F)cc2[nH]1	-1	-1	-6	-6	13	-7	i	3
C(=N\Nc1nc(N2CCCCC2)nc(N2CCCCC2)n1)/c1c[nH]c2ccccc12	-6	4	-10	-6	8	.	i	10
O=C(CCc1c[nH]c2ccccc12)NCc1ccco1	2	2	-7	-4	12	1	i	9
CC(=O)c1c(C)[nH]c(C(=O)CSc2nnc(-c3ccccc3)n2Cc2ccc3c(c2)OCO3)c1C	0	-1	2	1	3	.	i	.
O=C(NCC1CCCO1)C(c1ccc(F)cc1)N(CC1CCCO1)C(=O)c1ccc(-c2ccccc2)[nH]1 (stereo not given)	0	4	-5	8	-1	.	i	0
CCCn1c(N)c(N(CCOC)C(=O)Cc2ccc(S(=O)(=O)N3CCOCC3)s2)c(=O)[nH]c1=O	0	7	-10	.	.	-7	i	-8

Later entries
SMILES	MT1-MMP act inh	MT1-MMP act inh RFP	CSC inhib	PABP polyA inh	eIF4H inh	Yeast UUG start	Rce1 inhib	Env fusion inh	others
O=C(O)Cc1ccc(NS(=O)(=O)c2ccc3c(c2)OCCO3)cc1	4	7	.	.	.	-4	.	10
O=C(/C=C/c1ccc([N+](=O)[O-])cc1)OCC(=O)N1CCCCCC1	2	2	-1	.	.	-2	.	-11
O=C1c2ccccc2C(=O)N1S(=O)(=O)c1ccccc1	-2	3	-6	12	0	-4	i	5
COC(=O)c1sccc1NC(=S)N1CCCCC1C (stereo not given)	-4	-4	-5	5	0	-21	i	11

Only part of the results is shown, so the mix of outcomes need not match the whole.
